GLA inh pH 4.5 – alpha-galactosidase A (human) inhibition, pH 4.5 | 230,000 tested, under 10 active | activity change, negative = inhibition, % at 105 µM | AID 1467 | purified enzyme, 4-MU-alpha-Gal fluorescence, pH 4.5 | P06280; inconclusive = small, poorly fitted or top-dose-only inhibition, or a rising curve; inactive = flat fitted curve, though single readings scatter; no compound was filed as active;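 further: 0% = full activity with enzyme and -100% = basal without enzyme; dose as in the result columns while the protocol names 77 µM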
Target sequence (P06280 whole entry, looked up): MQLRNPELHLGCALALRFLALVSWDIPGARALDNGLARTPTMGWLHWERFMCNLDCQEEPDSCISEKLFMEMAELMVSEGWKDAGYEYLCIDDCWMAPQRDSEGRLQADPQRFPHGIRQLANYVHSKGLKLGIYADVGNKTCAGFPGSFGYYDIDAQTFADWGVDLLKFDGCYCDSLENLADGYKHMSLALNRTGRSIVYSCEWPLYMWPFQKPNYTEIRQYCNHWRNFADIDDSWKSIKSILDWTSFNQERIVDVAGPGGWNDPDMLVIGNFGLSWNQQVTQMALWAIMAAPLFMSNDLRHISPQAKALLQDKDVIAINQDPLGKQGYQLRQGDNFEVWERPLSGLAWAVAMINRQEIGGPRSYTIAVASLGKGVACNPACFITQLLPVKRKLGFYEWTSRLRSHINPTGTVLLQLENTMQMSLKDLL
miR-21 reporter – miR-21 reporter, rising signal. HeLa miR-21 FLuc reporter, luciferase, 48 h. 340,000 tested, under 10 active. AID 2288. Potency, µM (series often up to 38.3 µM), for the others: at the top dose reporter change, positive = more light; active = well fitted rising curve with a large enough effect; inconclusive = small, poorly fitted or top-dose-only effect; inactive = no such curve, though single readings can be large or run the other way;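 further: % of control where 0% means no effect; miR-21 action dims this reporter so a rising signal means less miR-21 action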
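HeLa cells endogenously expressing miR-21, stably carrying CMV-driven firefly luciferase with a downstream miR-21 binding site, 2000 cells/well. Titrations up to approximately 40 uM, 48 hours; luciferase luminescence read.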
Rango release inh – inhibition of RanGTP-driven Rango-importin beta dissociation. Potency, µM (titrated, usually from 46.1 µM), for the others: at the highest dose activity change, negative = inhibition. O95149+P62826. 340,000 tested, 0.071% active. Biochemical FRET Rango-importin beta, RanGTP-induced dissociation; active means falling FRET ratio curve, often poorly fitted, with flat reads before Ran was added; inconclusive means other falling curves, or compound fluorescence or quenching; inactive means flat or rising ratio curve;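 further: potency means the concentration at half of the fitted maximal effect; % of control where 0% means no effect; nearly all actives have a fitted effect of over 45% in size; -100% = wells without RanGTP and RCC1; the record marks most hits as doubtful in a second field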
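FRET read at 45 min, room temperature: inhibitors block the CFP/YFP signal rise when RanGTP (0.6 uM Ran, 2 mM GTP, 0.2 uM RCC1) frees Rango (0.1 uM) from importin beta (0.25 uM). Pre-read after 5 min compound exposure flags interference.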
Rango-impB inh – inhibitors of Rango-importin beta complex formation | Q14974 | Rango CFP/YFP FRET sensor + importin beta, 45 min | Potency, µM (titrated, usually from 92.2 µM), for inactives: at the highest dose inhibition of complex formation | 340,000 tested, 0.031% active | AID 540263; active = rising FRET ratio curve, often small or poorly fitted; inconclusive = mostly compound fluorescence or quenching in the first reads; inactive = flat curves in all reads;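 further: potency means the concentration at half of the fitted maximal effect; 0% = DMSO wells and 100% = buffer wells lacking importin beta; nearly all actives have a fitted effect of over 15% in size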
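FRET biosensor (snurportin 1 IBB flanked by EYFP and cerulean), 50 nM, with compound 5 min, then 0.125 microM importin beta in PBS, 1 mM DTT, 0.02% Tween-20, 0.1% BSA. CFP/YFP ratio read after 45 min at room temperature; pre-read flags interference.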
An asterisk follows results filed as active; ? = inconclusive; . = no result given; & = joins results of further samples; [ ] = dose if it differs, or a comment.

SMILES | GLA inh pH 4.5 | miR-21 reporter | Rango release inh | Rango-impB inh
O=C(CN1C(=O)c2cccc3cccc1c23)Nc1ccc2c(c1)OCO2 | 8 | -3% | ? | ?
Cc1nn(-c2ccc(Br)cc2)c(=O)c2ccccc12 | . | -65% | 1% | -3.3%
O=c1c2cnn(-c3ccccc3)c2nnn1/N=C/c1cccnc1 | 1 | 0% | 27% | -2.6%
CC(=O)NCCn1c(C)cc2ccccc21 | 0 | -3% | -27% | ?
CCOc1ccc(OCC)c(NC(=O)C2CCN(c3ncccn3)CC2)c1 | 0 | -9% | 0% | -2.9%
Cc1cc(C)n(CCC(=O)N2c3ccccc3CC2C)n1 (configuration not stated) | . | -1% | -7% | -2.5%
OCc1nc(CO)n(Cc2ccccc2)n1 | -1 | -5% | 1% | 2.3%
Cc1ccc(CNC(=O)C2CC(c3cccc(F)c3)=NO2)cc1 (configuration not stated) | 0 | 4% | -18% | -1.1%
Cc1ccccc1NC(=O)Cn1cnc2c(oc3nc4c(cc32)CCCC4)c1=O | . | -11% | 1% | -4.0%
Cc1cc(=O)oc(C)c1C(=O)NCC(C)NC(=O)c1c(C)cc(=O)oc1C (configuration not stated) | 2 | -1% | -10% | -2.8%
Cc1c(N=Cc2c(O)n(C)c(=O)c3ccccc23)c(=O)n(-c2ccccc2)n1C | 6 | -2% | ? | ?
CC1(c2ccccc2)NC(=O)N(CC(=O)Nc2cccc(C#N)c2)C1=O (configuration not stated) | 2 | 1% | -1% | 3.6%
CCCCN1C(=O)C(=O)N(CC(=O)N2CCN(c3ccccc3)CC2)C1=O | . | . | -3% | -1.9%
Cc1ccc(S(=O)(=O)Nc2cccc(Cl)c2)cc1NC(=O)c1cccnc1 | -6 | 6% | -9% | -3.3%
CCN(Cc1ccccc1)S(=O)(=O)c1cc2c3c(c1)CCN3C(=O)CC2 | . | . | -5% | -2.2%
CCOc1ccc(NC(=O)CN2CCN(CC(=O)Nc3ccc(C(N)=O)cc3)CC2)cc1 | . | 5% | -13% | 1.2%
CCC(=O)N1CCc2cc(Br)cc(S(=O)(=O)CC(=O)OC)c21 | -1 | -3% | 10% | -3.5%
CCOc1cc(S(=O)(=O)N2CCCC2)ccc1Cl | -1 | -11% | 14% | -2.7%
CC(C)(C)OC(=O)C[C@@H]1C/C=C\C[C@H](CC(=O)NCCO)C(=O)NC[C@@H](c2ccccc2)OC1=O | . | . | -4% | ?
O=C(NC1CCCCC1)C(=O)c1c[nH]c2ccccc12 | . | -63% | 2% | -2.8%
Cc1ccc(C(C(=O)NCc2ccco2)N(C(=O)CNC(=O)c2cccs2)c2c(C)cccc2C)cc1 (configuration not stated) | -11 | -6% | 4% | -0.9%
CCC(C)c1ccccc1NC(=O)COC(=O)C1=NN(c2ccccc2)C(=O)CC1 (configuration not stated) | . | . | 8% | -3.4%
Nc1ccc(Nc2nc(-c3ccncc3)cs2)cc1 | 6 | -17% | 3% | -2.3%
Cn1c(SCc2nc3ccccc3[nH]2)nnc1-c1cccnc1 | 4 | -5% | 0% | 0.9%
COc1ccc(-n2c(N)c(C#N)c3ccc([N+](=O)[O-])cc3c2=O)cc1 | -2 | -32% | ? | ?
Cc1cc(C)c(-c2csc(NC(=O)c3cc([N+](=O)[O-])ccc3N3CCOCC3)n2)c(C)c1 | -5 | 0% | -4% | -5.4%
C/C(Sc1nnc(Cc2ccccc2)o1)=C(/O)c1ccccc1 | 12 | 0% | 11% | 4.4%
CCOc1ccc(NC(=O)CN(C)C(=O)c2ccc3[nH]c4c(c3c2)CC(C)CC4)cc1OCC (configuration not stated) | . | . | -7% | -2.8%
CC1CCC(NC(=O)CN2CCC(n3nnc4cc(F)ccc43)CC2)CC1 (configuration not stated) | 1 | 0% | 1% | 0.2%
COCCNC(=O)C(c1cccnc1)N(Cc1ccccc1)C(=O)Cn1nnc2ccccc21 (configuration not stated) | -1 | -50% | -5% | -2.3%
COc1ccc(Br)cc1C(=O)NC(=S)Nc1ccc(CN2CCOCC2)cc1 | . | 1% | 2% | 0.0%
COc1ccc(C(=O)c2ccc([N+](=O)[O-])cc2Cl)cc1 | -2 | -12% | 18% | 3.6%
CC(C)Oc1ccc(CNC(=O)Cn2ccc3cc(S(=O)(=O)N4CCCC4)ccc32)cc1 | . | 6% | 0% | 3.0%
Cc1[nH]c2ccc(F)cc2c1CCN(Cc1cccnc1)C(=S)Nc1ccc(F)cc1 | -2 | 8% | 1% | 0.7%
CCOC(=O)[C@H]1[C@H]2COc3ccc(OC)cc3[C@@H]2N2C(=O)CN(Cc3ccco3)C(=O)[C@@]12C | . | . | ? | ?
N#Cc1cn(-c2ccccc2)nc1-c1cc2ccccc2oc1=O | 3 | -13% | -14% | -3.3%
NC(=O)NC(=O)COC(=O)CC12CC3CC(CC(C3)C1)C2 | -2 | -9% | 12% | 1.2%
CCOC(=O)COc1ccc2c(=O)cc(-c3ccccc3)oc2c1 | 5 | 0% | -3% | -0.7%
O=C(OCC(=O)N1CCCCC1)c1c[nH]c2ccccc12 | . | . | 2% | -1.4%
O=C(Cc1ccccc1)NCC(=O)OCc1ccc([N+](=O)[O-])cc1 | 1 | -3% | 8% | 1.9%
COC(=O)C1=C(C)NC(C)=C(C(=O)OC)C1c1ccc(-c2cccc(Cl)c2Cl)o1 | 6 | -22% | 2% | ?
COc1ccc(C(=O)C2CCCN(C/C=C/c3ccccc3OC)C2)c(OC)c1 (configuration not stated) | 0 | 2% | -2% | 4.8%
CC(=O)c1ccc(NC(=O)C2C3C=CC(C3=C(c3ccccc3)c3ccccc3)C2C(=O)O)cc1 (configuration not stated) | -8 | -8% | -10% | 0.0%
COc1ccc(C(CC(=O)O)NC(=O)Nc2ccccc2)cc1OC (configuration not stated) | 9 | -3% | -5% | 1.6%
Cc1cccc(N=C2NC(=O)/C(=C\c3cccs3)S2)c1 | 0 | 10% | 23% | 0.3%
COc1ccccc1C(=O)Nc1ccc2c(c1)CCCN2C(=O)c1cccs1 | . | -4% | 1% | ?
CC1(c2cccc(Br)c2)NC(=O)N(CC(=O)N2CCc3ccccc32)C1=O (configuration not stated) | . | . | 9% | -1.7%
O=C(NCc1ccccn1)Nc1cc(Cl)ccc1Cl | . | 8% | 5% | -1.8%
O=C(Nc1cccc(NC(=O)c2ccc([N+](=O)[O-])o2)c1)c1ccco1 | . | ? | 36% | -2.6%
c1ccc2c(c1)Cc1ccccc1O2 | . | . | 2% | -1.1%
CC(=O)Nc1ccc(-c2nnc(SCc3c(C)cc(C)cc3C)n2C)cc1 | 6 | 1% | 10% | -0.7%
COc1ccc(N(Cc2ccccc2)C(=O)CSc2nnc(Cn3nnc4ccccc43)o2)cc1 | 1 | 13% | 11% | 0.2%
CC(C)(C)NC(=O)[C@H]1CC[C@H]2[C@@H]3CC[C@H]4NC(=O)C=C[C@]4(C)[C@H]3CC[C@]12C | -3&-1 | 0% | 19% | 0.0%
CC1(C)Cc2nc3oc4c(NCc5ccccc5)ncnc4c3cc2CO1 | -7 | -6% | 8% | 0.6%
CC1(C)CC(=O)C2=C(C1)NC(=O)NC2c1ccc(Cl)cc1 (configuration not stated) | . | 3% | 16% | -0.5%
Cc1c(C(=O)N2CCCCC2)oc2ccc(Br)cc12 | . | . | -10% | 2.8%
Cc1cc(C)n2nc(S(=O)(=O)N(CC(C)C)CC(C)C)nc2n1 | 4 | -6% | 1% | 5.6%
CCCCN(CCCC)CC(O)COc1ccccc1Br (configuration not stated) | -10 | 1% | 6% | ?
c1ccc(C2=NOC(c3nnc(-c4ccccc4)o3)C2)cc1 (configuration not stated) | . | . | 7% | 4.0%
COc1ccccc1CNC(=O)c1ccccc1C(=O)NC(C)(C)C(=O)NCc1ccccc1OC | . | 3% | 10% | 1.1%

Later entries.
SMILES | GLA inh pH 4.5 | miR-21 reporter | Rango release inh | Rango-impB inh
CC(=O)Nc1ccc(NC(=O)C2CCC(CNS(=O)(=O)c3cccc4nsnc34)CC2)cc1 (configuration not stated) | 6 | 0% | -8% | 0.2%
CCOC(=O)C1=C(N)OC2=C(C(=O)CC(C)(C)C2)C1c1cc(CSc2nnnn2C)cs1 (configuration not stated) | -8 | -4% | -11% | -2.7%
C[C@H](NC(=O)c1nc[nH]c1C(=O)OCc1ccccc1)c1ccccc1 | . | . | 10% | -2.8%
CCCCCCC(C)n1[nH]c(=O)cc1N (configuration not stated) | -9 | 1% | 0% | 3.5%
O=C(CSc1nc2ccccc2o1)N1N=C(c2cccs2)CC1c1ccc(F)cc1 (configuration not stated) | -10 | 1% | -8% | -0.7%
COc1cc(/C=C(\NC(=O)c2ccccc2)C(=O)Nc2cccc(O)c2)c([N+](=O)[O-])cc1OC | 2 | -6% | 8% | -0.6%
CN1CCN(c2nc(C(N)=O)cc(-c3ccccc3)n2)CC1 | -7 | -16% | 23% | -0.9%
CCc1ccc(OCC(=O)Oc2ccc([N+](=O)[O-])cc2)cc1 | . | -5% | ? | 0.2%
COc1ccc(CNC(=O)C(=O)NC2CC(C)(C)NC(C)(C)C2)cc1 | 0 | 1% | 2% | 3.4%
CCCN(CCC)c1ccc(/C=C/c2ccc3cc(OCC)ccc3n2)cc1 | 6 | -32% | ? | ?
Cc1ccc(C)c2c(N)c3c(nc12)CCCCC3 (tested in a mixture with another compound) | -19[21.1 µM] | 0% | 11% | 4.9%
Cc1sc(N/N=C/c2ccco2)nc1-c1ccccc1 | 1 | -25% | 2% | -0.8%
Cc1cccc(-n2c(=O)c3c(C)c(C)sc3n(CC(N)=O)c2=O)c1 | 3[21.1 µM] | 5% | 13% | 4.0%
CCOC(=O)C1=NOC(COc2ccccc2C=O)C1 (configuration not stated) | -3 | -3% | -4% | -0.3%
COc1ccc(C(=O)NCCS(=O)(=O)N(C)C2CCCCC2)cc1 | . | . | 0% | -1.3%
CCOC(=O)C1=C(C)NC(=O)NC1c1ccc(-c2ccc(Cl)cc2)o1 (configuration not stated) | -6 | -6% | 3% | ?
CCOC(=O)c1sc(NC(=O)Nc2ccccc2)cc1C | 1 | 21% | 1% | -1.5%
COCc1c(C(=O)N/N=C(\C)c2ccc(Cl)s2)nnn1-c1nonc1N | . | -1% | -11% | 0.2%
Cc1ccccc1OCc1nnc(SCC(=O)Nc2ccc3c(c2)oc2ccccc23)n1C | 2 | -15% | -5% | -0.5%
C[C@H](CO)N1C[C@H](C)[C@@H](CN(C)Cc2ccc(-c3ccccc3)cc2)Oc2c(NS(=O)(=O)c3ccccc3)cccc2C1=O | . | . | ? | 3.7%
O=C(Nc1ccc(F)cc1)Nc1cccc(Br)c1 | . | . | 37% | 2.8%
Cc1cc(C)c(C#N)c(N)n1 | -4 | 1% | 16% | -3.7%
COc1ccccc1CC(=O)Nc1cccc2ccccc12 | . | -19% | 13% | -4.6%
c1cc(CNc2ccc(N3CCOCC3)cc2)ccn1 | 3 | -18% | -2% | 0.8%
CCC(=O)Nc1nc(-c2ccc3c(c2)CC(C)N3S(C)(=O)=O)cs1 (configuration not stated) | 0 | -3% | 0% | ?
CCOc1ccc(-c2noc(CCC(=O)NCCc3ccccc3)n2)cc1OC | . | -8% | -3% | 0.1%

Compound activity (PubChem BioAssay)

These rows are one share of the data, so the mix of outcomes need not match the whole.
